From PubChem BioAssay
Methyltransferases – Primary Screen for Target Class Profiling of Small Molecule Inhibitors of Methyltransferases; purified enzyme, MTase-Glo SAH luminescence; active compounds read low; calls only at 40 µM; actives 3.9% (n = 25,000); AID 1745853, 2022; active = -50% or lower on at least one of six enzymes; inconclusive = the cases between; inactive = as a rule above -30% on all six;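 also: enzymes were COMT GAMT GNMT HNMT NNMT and PNMT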
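Each enzyme was assayed with SAM and its substrate. SAH formation detected by MTase-Glo luminescence; single-point 40 uM screen[…].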
Calls only; i = inactive; ? = inconclusive. % is scaled to controls: 0 for no effect and ±100 for the full control effect. These rows are one share of the data, so the mix of outcomes need not match the whole.

SMILES,Methyltransferases
CC(C)CCn1c(=O)c2ccc(C(=O)NC3CCCCC3)cc2n2c(=O)n(CC(N)=O)nc12,i
CCc1cccc(NC(=O)Cn2nc3n(C)c(=O)c4ccc(C(=O)NC(C)CC)cc4n3c2=O)c1 (stereo not given),i
CC1(C(=O)NC2CCCC2)Cn2c(ccc2-c2ccco2)C(=O)N1C1CC1 (stereo not given),i
C=C1/C(=C/C=C2\CCC[C@@]3(C)C2CCC3[C@H](C)/C=C/[C@@H](O)C2CC2)C[C@@H](O)C[C@@H]1O (stereo not given in full),?
CN1CCN(c2cc(=O)c3ccnc(Nc4ccc(F)c(Cl)c4)c3o2)CC1,?
COc1ccc(OCC2CN(Cc3cccs3)[S+](=O)([O-])c3cccnc3O2)cc1 (stereo not given),i
CC(Oc1cc(O)c2c(=O)cc(-c3ccccc3)oc2c1)C(=O)c1ccccc1 (stereo not given),i
CC[C@H]1CN(Cc2ccc(OC)cc2O)CC[C@H]1CC(=O)N1CCOCC1,i
C[C@@H]1CN(C(=O)c2cccc(N3CCNC3=O)c2)C[C@@]1(O)C1CC1,i
CC1(C(=O)NC2CCCCCCC2)Cn2c(cc3sccc32)C(=O)N1Cc1cccs1 (stereo not given),i
Cc1ccccc1NC(=O)CSc1nnc2[nH]c(=O)c(C(C)(C)C)nn12,i
COC(=O)c1ccc(C)c2c1C1C=CCC1[C@@H](c1ccc(C(=O)O)cc1)N2 (stereo not given in full),?
CCOCCCNC(=O)CCc1nnc2n(CCc3ccccc3)c(=O)c3ccccc3n12,i
O=C(O)CCC(=O)N1CCCC1C(=O)O (stereo not given),i
CCCn1c(=O)c2ccc(C(=O)NC3CCCC3)cc2n2c(SCC(=O)Nc3cccc(C)c3)nnc12,i

Grouped by structure, the entries above containing a COOH group
SMILES,Methyltransferases
COC(=O)c1ccc(C)c2c1C1C=CCC1[C@@H](c1ccc(C(=O)O)cc1)N2 (stereo not given in full),?
O=C(O)CCC(=O)N1CCCC1C(=O)O (stereo not given),i

(more compounds)
SMILES,Methyltransferases
CCCCCCCCCC[Si](C)(C)CCC(=O)NC(Cc1ccc(C)cc1)c1ccccc1 (stereo not given),i
Cc1ccc(CNC(=O)Cn2nc3n(CCC(C)C)c(=O)c4ccccc4n3c2=O)cc1,i
COc1cccc(NC(=O)CN(C)S(=O)(=O)c2ccc3[nH]c4c(c3c2)CCCC4)c1,i
CC1CC(=O)NN=C1c1ccc(NCC(C)(C)NCC(O)COc2cc(Cl)ccc2C#N)cc1 (stereo not given),i
O=C(N[C@@H]1CN(Cc2ccccc2)C[C@H]1CO)c1cn[nH]c1,i
CC(=O)O[C@@H]1[C@H](OC(C)=O)C[C@@]2(C)C(CC[C@@H](C)[C@]23Cc2c(O)cc4c(c2O3)CN([C@@H](CCC(=O)O)C(=O)O)C4=O)C1(C)C (stereo not given in full),i
Cc1ccc(NC(=O)Cn2c(=O)c3ccc(Cl)cc3n3nncc23)cc1,i
O=c1c2ccccc2n2c(SCc3ccccc3F)nnc2n1Cc1ccccc1,i
Cc1ccc(-c2n[nH]n3c2nc(=O)c2ccc(C(=O)NCc4ccccc4)cc23)cc1,i
CC1(C(=O)O)CCCC2(C)C3CCC4CC3(CCC12)CC4=O (stereo not given),i
CC1(C(=O)NC2CCCCC2)Cn2nc(-c3ccco3)cc2C(=O)N1c1ccccc1F (stereo not given),i
O=C(NC1CC1)[C@@H]1C[C@H](Oc2ccccc2)CN1C(=O)C1CCC1,i
O=c1cc(-c2cccnc2)oc2c(NCCc3ccccn3)nccc12,?
Cc1noc(C)c1CC(=O)N1CCCn2ccnc2C1c1ccccc1 (stereo not given),i
Cc1ccc(NC(=O)Cn2nc3n(CCCOC(C)C)c(=O)c4ccccc4n3c2=O)cc1C,i

A second format for 4 compounds above.
structure: Cc1ccc(-c2n[nH]n3c2nc(=O)c2ccc(C(=O)NCc4ccccc4)cc23)cc1
  Methyltransferases: i
structure: CC1(C(=O)O)CCCC2(C)C3CCC4CC3(CCC12)CC4=O (stereo not given)
  Methyltransferases: i
structure: CC1(C(=O)NC2CCCCC2)Cn2nc(-c3ccco3)cc2C(=O)N1c1ccccc1F (stereo not given)
  Methyltransferases: i
structure: O=C(NC1CC1)[C@@H]1C[C@H](Oc2ccccc2)CN1C(=O)C1CCC1
  Methyltransferases: i

Further entries follow:
SMILES,Methyltransferases
O=S(=O)(NCCc1nc2ccccc2n1S(=O)(=O)c1ccccc1)c1ccccc1,i
COc1cc2nc(N(C)CCCNC(=O)C3CCCO3)nc(N)c2cc1OC (stereo not given),i
C=CCn1c(=O)c2ccc(C(=O)NC(C)C)cc2n2c(=O)n(CC(=O)N(C)c3ccccc3)nc12,i
O=C1CCCN1CCCNc1nc2c(-c3cccc(F)c3)nnn2c2ccc(Cl)cc12,i
CCCC1(C(=O)O)CCCN(S(=O)(=O)c2ccsc2C(=O)O)C1 (stereo not given),i
Cc1ccc(NC(=O)Cn2nc3n(CC(C)C)c(=O)c4ccccc4n3c2=O)c(Cl)c1,i
O=C(Nc1cccc(C(=O)Nc2ccc(S(=O)(=O)O)c3cc(S(=O)(=O)O)cc(S(=O)(=O)O)c23)c1)Nc1cccc(C(=O)Nc2ccc(S(=O)(=O)O)c3cc(S(=O)(=O)O)cc(S(=O)(=O)O)c23)c1,i
COc1ccc(Cl)cc1C(=O)N1CCC2(CC1)CN(C)CCN2C,i
COc1cccc([S+](=O)([O-])N2CCn3cc(C(=O)NCc4ccc(Cl)nc4)nc3C2)c1,i
COc1cc(NC(=O)CSc2nnc3n(CC(C)C)c(=O)c4cc(F)ccc4n23)cc(OC)c1,i
COc1cccc(CCC(=O)NCc2nnc3c(-c4nc(C)no4)cccn23)c1,i
C/C=C/C=C/C(=O)O[C@@H]1C=C2COC(=O)[C@]2(O)[C@@]2(C)CCCC(C)(C)[C@H]12,i
COc1ccc(OC)c(CNC(=O)c2cc3n(n2)CC(C)(C(=O)NC2CCCCCC2)N(C)C3=O)c1 (stereo not given),i
O=C(Nc1ccc([C@H]2OCC(=O)N(C3CCOCC3)[C@@H]2CO)cc1)c1cnccn1,i
CC(=O)NC(CO)C(=O)N1CCc2c(nc(-c3cccnc3)nc2N(C)C)C1 (stereo not given),i
CCN1C(=O)c2cc(C(=O)NCc3ccc(OC)cc3OC)nn2CC1(C)C(=O)NC1CCCC1 (stereo not given),i
O=C1CO[C@H]2CN(Cc3ccc(C(F)(F)F)cc3)C[C@H]2N1,i
CC(=O)N1CCc2ccc(O)c(OC3OC(COC4OCC(O)(CO)C4O)C(O)C(O)C3O)c2C1Cc1ccc(O)cc1 (stereo not given),i
Cc1ccc(Cn2c(=O)c3ccc(C(=O)NC4CCCCC4)cc3n3c(=O)[nH]nc23)cc1,i
Cc1ccc(NC(=O)CSc2nnc3n(CCc4ccccc4)c(=O)c4ccccc4n23)cc1C,i
CC1(C(=O)NCc2ccccc2)Cn2c(cc3ccccc32)C(=O)N1Cc1ccccc1 (stereo not given),i
CCc1cccc(N2C(=O)CSc3c(c4ccccc4n3C)C2C(=O)NCc2ccc(F)cc2)c1 (stereo not given),i
Cc1ccsc1-c1[nH]nc2ncc(-c3ccccc3O)nc12,?
Cn1c(=O)c2ccc(C(=O)NC3CCCC3)cc2n2c(SCC(=O)Nc3cccc(Cl)c3)nnc12,i
OCCN1CCN(CCCN2c3ccccc3Sc3ccc(C(F)(F)F)cc32)CC1,?
NC(c1ccccc1)c1nnc2n1CCN(C(=O)N1CCOCC1)C2 (stereo not given),i
OCCN1CCN(C(c2ccc(Cl)cc2Cl)c2sc3nc(-c4ccco4)nn3c2O)CC1 (stereo not given),?
CC1CCCN1c1ccc(C(=O)N2CCC(Oc3cccnc3)CC2)cn1 (stereo not given),i
CC1(C(=O)NCc2ccc(F)cc2)Cn2c(nc3ccccc32)C(=O)N1Cc1ccc2c(c1)OCO2 (stereo not given),i
CC1CCC(NC(=O)C2(C)Cn3c(ccc3-c3ccccc3)C(=O)N2Cc2cccs2)CC1 (stereo not given),i
NC(=O)C1CCN(C(=O)CCCc2nnc3n4nc(-c5ccccc5)nc4c4ccccc4n23)CC1,i
CCOCCCNc1nc2c(S(=O)(=O)c3c(C)cc(C)cc3C)nnn2c2ccccc12,i
Cn1cccc1-c1noc(C2CCN(C(=O)CCn3cnc4ccccc43)C2)n1 (stereo not given),i
Cc1[nH]c2ccccc2c1CCNC(=O)c1ccccc1F,i
O=C(OCC1=CC(Cl)C(O)C(OC(=O)c2ccccc2)C1O)c1ccccc1 (stereo not given),i
CC1(C(=O)NC2CCCCC2)Cn2nc(-c3cccs3)cc2C(=O)N1c1ccc(Cl)cc1 (stereo not given),i
O=C(O)Cc1cccc(-c2cc(CCCCCCc3ccc(O[C@H]4O[C@H](CO)[C@@H](O)[C@H](O)[C@@H]4O)c(-c4cccc(CC(=O)O)c4)c3)ccc2O[C@H]2O[C@H](CO)[C@@H](O)[C@H](O)[C@@H]2O)c1,i
Nc1nc2[nH]c(=O)cnc2c(=O)[nH]1,i
CN1C(=O)c2cc(C(=O)NCCCN3CCCC3)nn2CC1(C)C(=O)NCc1ccc(F)cc1 (stereo not given),i
OCC1(CN2CCCC2)CCN(Cc2cnn(-c3ccccc3)c2)CC1,i
CCc1cc2c(cc3n2CC(C)(C(=O)NC2CCC(C)CC2)N(Cc2cccc(F)c2)C3=O)s1 (stereo not given),i
CCOCCCNC(=O)C1c2c(n(C)c3ccccc23)SCC(=O)N1c1ccc(Cl)cc1C (stereo not given),i
Nc1nccc(-c2c(-c3ccc(F)cc3)ncn2C2CCCCC2)n1,i
COc1cccc(NC(=O)Cn2c(=O)oc3cc(S(=O)(=O)NC4CCCCC4)ccc32)c1,i
COc1ccc(OC)c(S(=O)(=O)N2CC(N(C3CCOCC3)S(C)(=O)=O)C2)c1,i
Cc1nc(NCC2(c3ccccc3)CCOCC2)cc(C2CC(O)C2)n1 (stereo not given),i
O=C(Cn1c(=O)oc2cc(S(=O)(=O)N3CCCC3)ccc21)NCCC1=CCCCC1,i
Cc1cc(C[C@@H]2COC[C@@H]2NC(=O)CCc2nc(-c3ccco3)no2)on1,i
O=C(NCc1ccc(Cl)cc1)c1cc(-c2ccc[nH]2)n[nH]1,i
CCn1c(CO)nnc1C1CC(NC(=O)c2ccc3nc(C)oc3c2)C1 (stereo not given),i
CC1CCC(NC(=O)Cn2c(=O)oc3cc(S(=O)(=O)N4CC(C)CC(C)C4)ccc32)CC1 (stereo not given),i
CCC(C)NC(=O)c1ccc2c(=O)n(C)c3nn(CC(=O)Nc4ccc(C)cc4Cl)c(=O)n3c2c1 (stereo not given),i
CCOC(=O)N1CCN(C(=O)c2sc(C(C)C)nc2C)CC1,i
CCC1(O)CCC12CCN(C(=O)Cc1ccccc1)CC2 (stereo not given),i
CC(=O)OC1C(O)CC(O[C@@H]2O[C@H](CO)[C@@H](O)[C@H](O)[C@H]2O)C2CCC3C(=O)OC(c4ccoc4)CC3(C)C21 (stereo not given in full),i
CC(C)CC(=O)OC1OC=C(CO[C@@H]2O[C@H](CO)[C@@H](O)[C@H](O)[C@H]2O)C2CC(O)C(O)(CO)C12 (stereo not given in full),i
CCOC(=O)[C@H](CCc1ccccc1)N[C@@H](C)C(=O)N1C2CCCCC2C[C@H]1C(=O)O (stereo not given in full),?
CC(C)CNC(=O)c1ccc2c(=O)n(C(C)C)c3nn(CC(=O)c4cccc(Cl)c4)c(=O)n3c2c1,i
CCOC(=O)N1CCC(NC)CC1,i
CCC(C)NC(=O)C1COC2(CCC(C)CC2)N1C(=O)c1cccc(C)c1 (stereo not given),i

Following part.
SMILES,Methyltransferases
COc1ccc2c(c1)N1C(=O)C[C@@]34C=CC[N@+]5([O-])CC[C@H]2[C@H](CC3)[C@@]145,i
CC(O)CCC1C(CO[C@@H]2O[C@H](CO)[C@@H](O)[C@H](O)[C@H]2O)CC(O)CC1(C)C (stereo not given in full),i
CCCn1c(=O)c2sccc2n2c(CCC(=O)NCc3ccncc3)nnc12,i
CC(C)CCNC(=O)C1c2c(n(C)c3ccccc23)SCC(=O)N1c1cc(F)ccc1F (stereo not given),i
CNC(=O)[C@@H](CC(C)C)N1CCC[C@H]1C(=O)NCCc1ccccn1,i
C[C@@H]1CN(C(=O)c2cnn(C)c2)CC[C@@]1(O)C1CCOCC1,i
O=C(CCc1cc2n(n1)CCCN(C(=O)CCc1ccsc1)C2)NC1CC1,i
COc1ccc2cc3n(c2c1)CC(C)(C(=O)NC1CCCC1)N(c1ccccc1C)C3=O (stereo not given),i
CC(C)NC(=O)c1ccc2c(=O)n(C(C)C)c3nn(Cc4ccccc4)c(=O)n3c2c1,i
CC1(C)CC[C@]2(C(=O)O[C@@H]3O[C@H](CO)[C@@H](O)[C@H](O)[C@H]3O)CC[C@]3(C)C(=CCC4[C@@]5(C)C[C@@H](O)[C@H](O)[C@@](C)(CO)C5[C@H](O)C[C@]43C)C2C1 (stereo not given in full),?
C=CCn1cc(CN(CC)Cc2ccc(OC)cc2)c(C)n1,i
